Screens: PubChem, Johns Hopkins Ion Channel Center
KCNQ2 pot: enhances the rat KCNQ2 potassium channel. CHO-K1 KCNQ2, FluxOR thallium flux fluorescence; stronger effect = higher value. B-score at 10 µM. 310,000 tested, 0.54% active. AID 2239;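 active = fluorescence ratio B-score at least 3 SD of library B-scores, with initial fluorescence B-score within 3 SD, cut at about 5.3 in these data; same plate scores as AID 2156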;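 note: B-score of peak minus minimum over baseline fluorescence ratio after K+ and Tl+ stimulus; positive B-score means potentiation of KCNQ2 with more thallium influx and brighter signal; only the inactives scoring about 0 or higher are listed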
Target sequence (O88943 whole entry, looked up): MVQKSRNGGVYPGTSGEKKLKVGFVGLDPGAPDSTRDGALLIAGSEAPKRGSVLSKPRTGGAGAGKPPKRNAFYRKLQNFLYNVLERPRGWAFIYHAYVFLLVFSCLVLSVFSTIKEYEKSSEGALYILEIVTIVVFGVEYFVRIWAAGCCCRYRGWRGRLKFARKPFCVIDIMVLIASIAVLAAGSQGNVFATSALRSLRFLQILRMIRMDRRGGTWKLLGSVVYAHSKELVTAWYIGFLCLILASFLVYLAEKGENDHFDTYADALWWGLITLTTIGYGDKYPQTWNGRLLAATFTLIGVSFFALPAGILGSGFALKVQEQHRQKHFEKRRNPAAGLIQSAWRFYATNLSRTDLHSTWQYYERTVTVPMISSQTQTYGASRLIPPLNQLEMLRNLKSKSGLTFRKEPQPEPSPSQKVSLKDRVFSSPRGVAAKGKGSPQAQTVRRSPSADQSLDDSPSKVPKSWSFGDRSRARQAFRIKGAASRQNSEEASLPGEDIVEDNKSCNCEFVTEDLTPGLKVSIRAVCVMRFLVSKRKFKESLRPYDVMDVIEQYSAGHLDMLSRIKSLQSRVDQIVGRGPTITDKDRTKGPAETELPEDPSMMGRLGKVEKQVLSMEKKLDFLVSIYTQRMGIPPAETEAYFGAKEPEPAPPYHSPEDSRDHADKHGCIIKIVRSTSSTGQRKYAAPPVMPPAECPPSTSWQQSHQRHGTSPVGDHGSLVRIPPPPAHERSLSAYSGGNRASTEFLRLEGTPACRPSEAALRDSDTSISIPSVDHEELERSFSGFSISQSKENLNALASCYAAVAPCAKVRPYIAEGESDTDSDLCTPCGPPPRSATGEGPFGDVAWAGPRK
KCNQ2 pot baseline: also measured in KCNQ2 pot; calls as there; B-score; compound at 10 µM; measured here: initial fluorescence intensity artifact check;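 brightness before thallium and not channel activity; 0 = typical well and far values either way flag optical interference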
* hit, by the source's call. This is a subset; rates above refer to the full screens.

SMILES	KCNQ2 pot	KCNQ2 pot baseline
CC(C)c1ccc(OCCCCCN2CCOCC2)cc1	0.13	-1.3
COc1ccc(C2CC(C(F)(F)F)n3ncc(C(=O)O)c3N2)cc1OC (stereo unspecified)	0.03	-0.49
CCc1cc2c(COC(=O)c3cccc(S(C)(=O)=O)c3)cc(=O)oc2cc1O	0.32	-0.33
Cc1cc(-c2ccccc2)nc(SCc2ccc(C(=O)O)cc2)n1	0.39	-1.9
CCN(CC)CCCn1c2c(c(SCC(=O)Nc3cc(OC)cc(OC)c3)nc1=O)CCC2	0.1	0.72
O=S(=O)(c1cccc2ccccc12)n1nnc2ccccc21	0.69	-1
COc1cccc(/C=C2/SC(=S)N(CC(=O)NNC(=O)c3ccccc3OC)C2=O)c1	0.35	0.31
O=S(=O)(c1ccc(S(=O)(=O)N2CCCC2)cc1)N1CCCCCC1	0.29	-0.79
CCOC(=O)C1CCN(C(=O)C2CCN(c3nn4c(=O)cc(C)nc4s3)CC2)CC1	0.75	0.2
Cn1c(=O)oc2cc(S(=O)(=O)Nc3cccc([N+](=O)[O-])c3)ccc21	2.6	-0.92
CC(=O)Nc1nc(=O)c2ccccc2s1	0.65	0.03
O=C(O)[C@H](Cc1ccccc1)NC(=O)N1CCCCCC1	1.2	1.4
CCOc1ccc(CC(=O)Nc2c3c(nn2C(C)(C)C)CS(=O)(=O)C3)cc1	0.24	-1.2
COC(=O)c1ccccc1NC(=O)C1CCN(S(=O)(=O)c2cc(C)ccc2OC)CC1	0.46	0.3
O=C(OCC(=O)c1ccc[nH]1)c1ccc2ccccc2n1	1.4	-0.62
CC(O)[C@H]1CN=C(N)N1CCCCC1CCCCC1 (stereo partly specified)	0.85	0.49
CC(C)c1ccccc1OCCNC(=O)c1cccnc1	1	0.68
O=C(O)CCc1nc2cc3ccccc3cc2[nH]1	2.8	-0.25
N#CCCN(C(=O)COC(=O)c1ccc(S(=O)(=O)N2CCCCCC2)cc1)c1ccccc1	0.51	-0.08
CC12CCC(=O)N1C(C(=O)NCCN1C(=O)S/C(=C\c3ccc(OC(F)F)cc3)C1=O)CS2 (stereo unspecified)	1.1	0.01
O=C1COc2ccc(C(=O)CSc3nnc(NCc4ccccc4)s3)cc2N1	0.41	-0.72
Cc1cc(C)cc(NC(=O)Nn2cnnc2)c1	1.5	0.35
COCCn1c(SCC(=O)Nc2nnc(C)s2)nnc1-c1cc2ccccc2cc1O	1.6	-0.35
Cn1c(=O)[nH]c(=O)c2c1nc(CN1CCOCC1)n2CCCc1ccccc1	0.06	-0.5
CS(=O)(=O)N1CCC(C(=O)Nc2cc(Cl)c(Cl)cc2Cl)CC1	1.5	-0.19
CC1Cc2ccccc2N1C(=S)NC(=O)c1ccc(Cl)cc1Cl (stereo unspecified)	21*	0.02*
c1ccc(CC2CCN(c3ncnc4sccc34)CC2)cc1	0.96	0.6
CC(C)CCN1NC2(CCCC(C)C2)NC1=S (stereo unspecified)	0.97	-1
CC(C)Cn1c(-c2ccc(Cl)cc2)cnc1SCC(=O)N1CCOCC1	0.66	0.45
Cc1ccc(OCC(=O)Nc2ccc(O)c(-c3nc4ccccc4o3)c2)cc1	1.4	-0.71
O=C(CCc1ccccc1)NC(=S)Nc1cccc(Br)c1	1.2	-1.6
CC1CCCC(C)N1C(=O)C1CCCCC1 (stereo unspecified)	1.5	0.16
O=C(C1CC1)N1CCc2cc(S(=O)(=O)N3CCN(c4ccccc4)CC3)ccc21	0.91	-1.4
O=C(c1ccc(F)cc1)N(Cc1cccs1)C1CCS(=O)(=O)C1 (stereo unspecified)	0.62	0.01
CC(C)c1ccc(/C=N/n2c(COc3ccccc3)n[nH]c2=S)cc1	7.7*	0.77*
CCOc1c(Cl)cc(/C=C/C(=O)N(CC)CC(=O)Nc2ccc(NC(C)=O)cc2)cc1OC	0.02	-0.16
CCOC(=O)N1CCC(N2Cc3cccc(C(=O)Nc4ccc(CC)cc4)c3C2=O)CC1	0.03	0
CCC(C)NC(=O)Cn1nc(C(F)(F)F)c2c1CCC2 (stereo unspecified)	1.2	0.93
CCC(=O)Nc1ccc(C(=O)NNC(=O)C(c2ccccc2)c2ccccc2)cc1	0.29	0
NC(=O)CC(NC(=O)c1ccccc1)c1ccc(NCCc2ccc(F)cc2)c([N+](=O)[O-])c1 (stereo unspecified)	0.98	-0.26
Cc1ccc(C(C(=O)NC(C)(C)C)N(CC2CCCO2)C(=O)c2csnn2)cc1 (stereo unspecified)	0.05	0.05
CCc1nn(CC(=O)NCCCN(CC)Cc2ccccc2)c(=O)c2cc3sccc3n12	0.56	-0.03
COc1cccc2sc3ccc(NCCC4CCCN4C)cc3c(=O)c12 (stereo unspecified)	0.12	1
CCn1c2ccccc2c2nnc(SCC(=O)NC(CC(C)C)C(=O)OC)nc21 (stereo unspecified)	0.34	0.17
Cn1cnnc1SCC(=O)NN1C(=O)NC(C)(c2ccccc2)C1=O (stereo unspecified)	0.06	-0.66
Cc1nc2nc(-c3ccco3)[nH]n2c(=O)c1C	0.78	1.3
C/C(=N\NC(=O)CC1N=C(Cc2ccccc2)NNC1=O)c1ccc(Cl)cc1Cl (stereo unspecified)	1	0
C/C(=N\NC(=O)c1ccc(NS(=O)(=O)c2cccs2)cc1)c1ccc(Cl)cc1	0.31	0.54
CCCOCc1ccc(O)c2ncccc12	3.8	-0.13
COC(=O)Nc1ncc(CN2CCc3ccccc3C2)s1	2.7	-2.9
COc1ccc(NC(=O)CSc2nc3c([nH]c4ccccc43)c(=O)n2C)c(OC)c1	0.53	-1
COc1ccc(C(=O)Nc2cc(OC)c(Cl)cc2OC)cc1	0.77	-0.97
CCOC(=O)C(NC(=O)Nc1ccc(F)cc1)(OCC)C(F)(F)F (stereo unspecified)	0.4	-2.5
CCOC(=O)c1c(N)nn(C(=O)CC)c1-c1ccccc1	1.1	-2.3
O=C(NCC(=O)N(Cc1cccs1)C(C(=O)NC1CCCCC1)c1cccnc1)c1ccco1 (stereo unspecified)	1.6	-0.53
O=C(CN1CCCCCC1)Nc1ccccc1OC(F)F	0.61	-0.45
Cc1cc2cc(C)c3nnc(SCC(=O)N4CCN(C(=O)c5ccco5)CC4)n3c2cc1C	0.56	0.67
C=C(C)CSc1nc2ncc(Cl)cc2[nH]1	0.89	-0.77
CCC(Sc1nncn1C)C(=O)Nc1cc(C)on1 (stereo unspecified)	0.15	0.21
O=C(Nc1cccnc1Cl)C1c2ccccc2Oc2ccccc21	0.18	-0.86

The list goes on.
SMILES	KCNQ2 pot	KCNQ2 pot baseline
Cc1nc(CNS(=O)(=O)c2ccccc2F)cs1	0.26	-0.8
Cc1cc(C=C2C(=O)c3ccccc3C2=O)c(C)n1C	0.52	-0.68
Cc1ccc(C(=O)Nc2cc3[nH]c(=O)oc3cc2C)cc1	0.69	-0.15
COC(=O)c1cc(Br)c(=O)n(-c2cccc(F)c2)c1	0.82	-1.7
COc1ccc(NC(=O)CCc2c(C)nc3nc(C)nn3c2C)cc1	1.9	-1.1
CN(C)S(=O)(=O)c1cccc(C(=O)Nc2ccc3c(c2)CCC3)c1	2.5	-0.3
Cc1ccc2c(c1)[C@@H]1CN(C)CC[C@@H]1N2S(=O)(=O)c1ccc(F)cc1	1.9	-0.19
COCC(=O)N(Cc1cc2ccc(C)cc2[nH]c1=O)c1ccccc1C	0.5	1.2
O=c1ccn(-c2cccc(C(F)(F)F)c2)nc1-c1ccn(-c2cccc(Cl)c2)n1	0.12	0.11
CCOC(=O)N1CCN(c2c(NCCCN3CCCC(C)C3)c(=O)c2=O)CC1 (stereo unspecified)	0.34	-0.18
COC(=O)c1cccc(C(=O)N2CCCC(Nc3ccc(C)c(C)c3)C2)c1 (stereo unspecified)	0.88	-0.45
CCOC(=O)c1sc(Nc2cccc(C)c2C)nc1C	1.1	0.09
CC(C)CN(C(=O)CN1CCN(c2ccccc2F)CC1)c1c(N)n(CC(C)C)c(=O)[nH]c1=O	0.85	-1.7
CC(C)(C)NS(=O)(=O)c1ccc(Oc2ncc(C(F)(F)F)cc2Cl)cc1	0.64	-0.71
O=[N+]([O-])c1ccc2c(c1)nc1n2CCN(c2ccccc2)C1	0.98	-0.5
Cc1cc[n+](Cc2ccccc2)c(N)c1	0.08	0.48
O=S(=O)(c1ccc(Br)s1)N1CCCCC1	0.53	0.49
Cc1cc(C)n(-c2cc(C(C)(C)C)nc3c(-c4ccccc4)cnn23)n1	1.3	-1.1
COc1ccc2c(c1OC)C(=O)OC2N1C(=O)CC[C@H]1C(=O)Nc1ccc(F)cc1F (stereo partly specified)	0.28	0.95
O=C1CCc2cc(S(=O)(=O)NC(Cc3ccccc3)C(=O)N3CCN(c4ccccn4)CC3)ccc2N1 (stereo unspecified)	1.8	0.9

Rewritten with each value named: part of the list above
smiles: O=C(NCC(=O)N(Cc1cccs1)C(C(=O)NC1CCCCC1)c1cccnc1)c1ccco1 (stereo unspecified)
  KCNQ2 pot = 1.6	KCNQ2 pot baseline = -0.53
smiles: O=C(CN1CCCCCC1)Nc1ccccc1OC(F)F
  KCNQ2 pot = 0.61	KCNQ2 pot baseline = -0.45
smiles: Cc1cc2cc(C)c3nnc(SCC(=O)N4CCN(C(=O)c5ccco5)CC4)n3c2cc1C
  KCNQ2 pot = 0.56	KCNQ2 pot baseline = 0.67
smiles: C=C(C)CSc1nc2ncc(Cl)cc2[nH]1
  KCNQ2 pot = 0.89	KCNQ2 pot baseline = -0.77

(listing goes on)
SMILES	KCNQ2 pot	KCNQ2 pot baseline
Cc1nc2ccccc2c(=O)n1NC(=O)C1CC1C (stereo unspecified)	2	1.5
O=C1N/C(=N/N=C/c2ccccc2)SC1(c1ccccc1)c1ccccc1	1.1	-1.6
CN(C)/C=C(\C=O)c1c(Cl)cccc1Cl	0.55	-1.4
COc1ccccc1N(C)S(=O)(=O)c1ccc(C(=O)OCC(=O)N2CCCCCC2)cc1	0.54	-0.65
CCOc1ccccc1N(CC(=O)N(C)Cc1ccccc1)S(=O)(=O)c1ccccc1	2.5	-0.84
CCC1(CC)NC(=O)N(CC(=O)OCC(=O)NC(=O)c2ccccc2)C1=O	1.1	-0.34
O=C(NCc1ccco1)c1cccc(S(=O)(=O)N2CCOCC2)c1	0.02	-0.78
O=C(CN1CCOCC1)N/N=C/C=C/c1ccccc1	1.7	-0.84
COCCN1C(=O)c2ccc(C(=O)NCc3ccco3)cc2C1=O	0.03	0.16
CC(=O)c1ccc(-c2ccc(C(=O)NC3CC(C)(C)NC(C)(C)C3)o2)cc1	0.64	-0.19
CCOC(=O)c1noc(C)c1C(=O)Nc1cccc(F)c1	0.69	1.7
CC(=O)c1c(C)[nH]c(C(=O)N(C)CC(=O)Nc2ccc(Cl)c(C(F)(F)F)c2)c1C	0.14	0.99
Cc1ccc(-c2nc3ccccc3[nH]2)cc1NC(=O)c1sc2cc(Cl)ccc2c1Cl	0.01	1.2
CC(C)[C@H](NC(=O)c1ccccc1Br)C(=O)OCc1nc2ccsc2c(=O)[nH]1	1.1	0.2
Cc1cc(S(=O)(=O)N2CCC3(CC2)OCCN3S(=O)(=O)c2cccs2)ccc1F	0.08	-0.71
CCN(CC)C(=O)CSc1nc2ncc(Br)cc2[nH]1	0.9	-0.38
Cc1c(NC(=O)C(C)OC(=O)C(NC(=O)c2ccco2)C(C)C)c(=O)n(-c2ccccc2)n1C (stereo unspecified)	0.44	-0.85
CCn1c(-c2ccc(-c3ccccc3)cc2)c[nH]c1=S	1.3	1.2
O=C(NCc1ccc2c(c1)OCO2)c1nnc(Cc2ccc(F)cc2)o1	0.8	-0.09
COc1ccc(NC(=O)CC2C(=O)N(C)C(=S)N2Cc2ccc3c(c2)OCO3)cc1 (stereo unspecified)	0.88	0.74

Ordered by the number under KCNQ2 pot (highest first): four from the list above
SMILES	KCNQ2 pot	KCNQ2 pot baseline
CC1Cc2ccccc2N1C(=S)NC(=O)c1ccc(Cl)cc1Cl (stereo unspecified)	21*	0.02*
Cc1nc2ccccc2c(=O)n1NC(=O)C1CC1C (stereo unspecified)	2	1.5
CCOC(=O)C1CCN(C(=O)C2CCN(c3nn4c(=O)cc(C)nc4s3)CC2)CC1	0.75	0.2
CCn1c2ccccc2c2nnc(SCC(=O)NC(CC(C)C)C(=O)OC)nc21 (stereo unspecified)	0.34	0.17

Following part:
SMILES	KCNQ2 pot	KCNQ2 pot baseline
NS(=O)(=O)c1ccc(-c2ccc(C=C3C(=O)c4ccccc4C3=O)o2)cc1	1.1	0.07
O=C1C(=O)N(c2nccs2)C(c2ccccc2F)/C1=C(\O)c1ccc2c(c1)OCCO2 (stereo unspecified)	0.33	-0.17
CCOC(=O)/C(C#N)=C\c1ccc(OCC(=O)Nc2ccc(C)cc2C)c(OC)c1	2.1	-0.8
Cc1cc(NC(=O)Nc2cccs2)no1	1.1	0.95
CCN(CC)S(=O)(=O)c1ccc(N2CCOCC2)c(NC(=O)CN2C(=O)NC(C)(c3ccccc3)C2=O)c1 (stereo unspecified)	1.6	-1.1
C=CCn1c(=NC(=O)c2cc(Cl)sc2Cl)sc2cc(S(N)(=O)=O)ccc21	0.03	2.1
COc1cccc(OC)c1C(=O)O/N=C(\N)c1ccncc1	0.3	0.63
CCN(CC)CCCNc1nc(-n2nc(C)cc2C)nc2sc3c(c12)CC(C)(C)OC3	1.9	-0.63
Cn1cc(-c2nnnn2-c2ccc(Cl)cc2)c(C(F)(F)F)n1	0.04	-0.94
NC(=O)C1CCN(C(=O)c2ccc3nc(N4CCCCC4)sc3c2)CC1	0.19	1.3
O=C(NC1CCN(S(=O)(=O)c2ccc(Cl)c(F)c2)CC1)c1cccnc1	1.2	0.53
Cc1ccc(S(=O)(=O)N2CCOC2CNC(=O)C(=O)NCC(C)C)cc1 (stereo unspecified)	0.67	-1.4
